# Source: PubChem (National Center for Advancing Translational Sciences (NCATS))
# Resorufin autofl: resorufin region autofluorescence. Compound fluorescence, resorufin region 547/598 nm, buffer; hits give high values. max dye-equivalent concentration, M. actives 0.04% (n = 59,000). AID 588; active = above 10 nM dye equivalent; inconclusive = 1 to 10 nM; inactive = 1 nM or less; a few of its hits are not listed in these tables; also: highest value over a series up to 38 µM
#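 Compounds in 100 mM Tris buffer, pH 8.0, incubated 15 min at room temperature, then read with 547 nm excitation and 598 nm emission filters. Fluorescence was converted to dye-equivalent concentration using an on-plate six-point resorufin standard curve.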
# TSHR ag: activates the human thyroid stimulating hormone receptor; P16473; HEK293-CNG-TSHR cells (CNG channel as cAMP sensor), membrane potential dye, cAMP; Potency, µM (doses to about 57.1 µM), inactives show at the highest dose activation, usual class: activators; actives 0.48% (n = 73,000); active = well fitted activation curve of enough size with the parental cells flat; inconclusive = any curve in the parental cells; inactive = parental cells flat and receptor cells flat or falling; also: potency is read from the fitted curve at half-maximal effect; % of control where 0% means no effect; weak receptor curves with flat parental cells got no call and are not listed
# Target sequence (P16473 whole entry, looked up): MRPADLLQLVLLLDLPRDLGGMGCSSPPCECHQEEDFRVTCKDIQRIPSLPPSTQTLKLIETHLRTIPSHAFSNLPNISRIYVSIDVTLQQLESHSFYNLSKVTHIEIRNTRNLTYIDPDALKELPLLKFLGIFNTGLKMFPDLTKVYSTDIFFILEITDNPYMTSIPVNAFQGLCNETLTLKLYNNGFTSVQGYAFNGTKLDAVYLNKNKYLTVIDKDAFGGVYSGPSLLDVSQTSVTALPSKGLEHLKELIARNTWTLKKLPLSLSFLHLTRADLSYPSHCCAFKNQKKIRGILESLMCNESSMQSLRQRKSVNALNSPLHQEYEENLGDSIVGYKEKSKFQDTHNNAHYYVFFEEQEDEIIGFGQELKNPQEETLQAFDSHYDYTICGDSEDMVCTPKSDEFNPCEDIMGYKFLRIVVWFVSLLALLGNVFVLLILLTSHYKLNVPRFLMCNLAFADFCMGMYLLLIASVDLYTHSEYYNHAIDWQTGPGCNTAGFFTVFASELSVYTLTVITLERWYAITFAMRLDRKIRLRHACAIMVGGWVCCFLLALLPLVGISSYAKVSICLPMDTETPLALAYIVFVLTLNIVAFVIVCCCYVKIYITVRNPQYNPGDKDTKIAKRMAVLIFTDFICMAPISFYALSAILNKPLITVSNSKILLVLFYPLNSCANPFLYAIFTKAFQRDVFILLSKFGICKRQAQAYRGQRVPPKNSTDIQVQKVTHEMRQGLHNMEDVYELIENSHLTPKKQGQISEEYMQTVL
#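 HEK 293 cells stably expressing TSHR and a modified CNG channel, with CNG-only parental cells as counterscreen, were preloaded 60 min at room temperature with membrane potential dye containing 100 uM RO 20-1724. Compound exposure was 30 min, and depolarization was read as fluorescence at 590 nm.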
# A488 fluor: compound autofluorescence in A488 spectral region. actives 0.1% (n = 59,000). AID 591. max dye equivalency, M. compound autofluorescence, A488 spectral region, dye equivalency; hits give high values; active = above 10 nM dye equivalent; inconclusive = 1 to 10 nM; inactive = 1 nM or less; about half of its hits are not listed in these tables;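 also: highest value over a series up to 38 µM; compound alone in buffer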
#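 Compounds pin-transferred into 100 mM Tris buffer, pH 8.0, incubated 15 min at room temperature, then imaged with 480 nm excitation/540 nm emission filters. Fluorescence converted to Alexa 488 dye-equivalent concentration via an on-plate six-point A488 standard curve.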
# A647 fluor: A647 region autofluorescence. Compound fluorescence, A647 channel (570/671 nm), Tris buffer. max dye-equivalent concentration, M. 59,000 tested, under 10 active. AID 592; active means above 1 µM dye equivalent; inconclusive means 0.1 to 1 µM; inactive means 0.1 µM or less;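 also: values scaled relative to a standard on each plate; highest value over a series up to 38 µM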
#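 Spectral profiling of library compounds in pH 8.0 Tris: 15 min room-temperature incubation, single ex/em pair (570/671 nm), response normalized to Alexa 647 equivalents.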
# AID923: qHTS Assay for Allosteric/Competitive Inhibitors of Caspase-1: Spectroscopic Profiling in AFC Spectral Region; Potency, µM (titrated, usually from 57.5 µM), for inactives: at the highest dose fluorescence increase, most hits filed as activators; compound fluorescence, AFC spectral region (405/520 nm); almost no hit is shown here; actives 1.1% (n = 75,000); active = well fitted activation curve with a large enough effect; inconclusive = small, poorly fitted or top-dose-only effect;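 also: potency is read from the fitted curve at half-maximal effect; 0% is about no effect; scaled to a free AFC standard on each plate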
#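 Baseline compound fluorescence (AFC region, 405 nm ex/520 nm em) taken from the intercept of kinetic reads with 50 nM caspase-1 and 5 uM Ac-WEHD-AFC; normalized to an on-plate AFC standard curve; compounds titrated up to 57 uM.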
# Active calls of the source: *; i = inactive; ? = inconclusive; . = no result given; [ ] = remark or other dose. This is a subset, so the mix of outcomes need not match the whole.
no.	SMILES	Resorufin autofl	TSHR ag	A488 fluor	A647 fluor	AID923
1	CCCCNC(=O)CC(NS(=O)(=O)c1ccc(C)cc1)c1ccco1 (stereo not drawn)	i	?	i	9.4e-09	-0.9%
2	CCOc1c(Cl)cc(C(=O)NCCN2CCCCC2)cc1Cl	i	4%	i	1e-09	-0.3%
3	CCn1c(NCc2ccc(N(C)C)cc2)nc2ccccc21	i	-6%	i	1e-08	0.0%
4	COc1ccc2c(C)cc(=O)oc2c1C	.	11%	.	.	-0.3%
5	CO[C@@H]1C=CO[C@]2(C)Oc3c(C)c(O)c4c(O)c(c(C=NN5CCN(C)CC5)c(O)c4c3C2=O)NC(=O)C(C)=CC=C[C@H](C)[C@H](O)[C@H](C)[C@H](O)[C@H](C)[C@H](OC(C)=O)[C@H]1C	i	-7%[25.6 µM]	i	1e-09	-2.4%[25.7 µM]
6	Cc1ccc2c(COn3nnc4ccc(S(=O)(=O)N(C)C)cc43)cc(=O)oc2c1C	i	?	i	7.8e-09	-3.3%
7	O=C(Oc1ccnc2cc(Cl)ccc12)N1CCOCC1	.	4%[11.4 µM]	.	.	-0.4%
8	C[N+]12CCC(CC1)C(OC(=O)C(O)(c1ccccc1)c1ccccc1)C2 (stereo not drawn)	i	.	i	3.5e-08	-2.6%

# Entries of single compounds as entered above:
# CCCCNC(=O)CC(NS(=O)(=O)c1ccc(C)cc1)c1ccco1 (stereo not drawn) across the screens: Resorufin autofl: i; TSHR ag: ?; A488 fluor: i; A647 fluor: 9.4e-09; AID923: -0.9%
# C[N+]12CCC(CC1)C(OC(=O)C(O)(c1ccccc1)c1ccccc1)C2 (stereo not drawn) across the screens: Resorufin autofl: i; TSHR ag: .; A488 fluor: i; A647 fluor: 3.5e-08; AID923: -2.6%

# (list continues)
no.	SMILES	Resorufin autofl	TSHR ag	A488 fluor	A647 fluor	AID923
9	O=C(CSc1nc2ccc([N+](=O)[O-])cc2s1)c1ccc2ccccc2c1	i	.	i	1e-09	1.5%[11.5 µM]
10	O=C(CSc1nnc(-c2cccnc2)n1Cc1ccccc1)NCc1ccco1	i	-2%	i	1e-09	1.3%
11	C=C(C)CN1C(=O)C(O)(CC(=O)c2ccc3c(c2)OCCO3)c2ccccc21 (stereo not drawn)	i	15%	i	5.7e-09	-0.7%
12	CCn1c(SC)nnc1-c1sc2cc(Cl)ccc2c1Cl	i	?	i	1.5e-08	0.5%
13	CC1CCCC(C)N1C(=O)Cn1c(=O)sc2ccccc21 (stereo not drawn)	.	4%	.	.	-0.1%
14	O=C(Cn1cccc1C(=O)c1ccccc1)NCc1cccnc1	i	?	i	4.1e-08	1.1%
15	Cc1cc(NS(=O)(=O)c2ccc(Cl)cc2)nn1CC(=O)NCc1ccco1	i	7%	i	2.6e-08	-1.0%
16	CCOCCc1nnc(NC(=O)c2cc(OC)c(OC)c(OC)c2)s1	i	1%	i	7.5e-09	-2.1%
17	COc1cc(C2Nc3cc(Cl)c(S(N)(=O)=O)cc3S(=O)(=O)N2)cc(OC)c1OC (stereo not drawn)	i	4%	i	1e-09	0.2%
18	COC(=O)c1ccc(-c2ccc(C(=O)N3CCCN(C)CC3)cc2)cc1	i	0%	i	6.6e-09	0.0%
19	COC(=O)C1=C(C)NC2=C(C(=O)c3ccccc32)C1c1ccc(-c2ccc(C(=O)O)cc2)o1 (stereo not drawn)	i	-6%	i	1.4e-09	5.8%
20	CCCN(CCC)CCNC(=O)C1CCCN(S(=O)(=O)c2ccc3c(c2)oc(=O)n3C)C1 (stereo not drawn)	i	-1%	i	1e-09	1.1%
21	O=C(c1ccco1)N1CCC2(CC1)CCN(C(c1ccccc1)c1ccccc1)CC2	i	0%	i	1.4e-09	8.5%
22	O=C(NCc1ccncc1)c1cccc(Cn2cc(Br)cn2)c1	i	?	i	2.4e-09	3.1%
23	Cc1cccc(OCCCC(=O)O)c1	i	3%	i	1e-09	-1.1%
24	CCS(=O)(=O)N1CCC(C(=O)NCCc2ccc(C)cc2)CC1	i	6%[11.4 µM]	i	2.8e-08	0.7%
25	CCOC(=O)c1sc2nc(CC(=O)OC)nc(NCc3ccco3)c2c1C	i	?	i	4e-09	-0.9%
26	CN1CCN(/C(=N\O)c2nonc2N)CC1	i	0%	i	1e-09	1.3%
27	CCN1CCN(CCCNC(=O)C(NC(=O)C2CCC(C)CC2)C(C)C)CC1 (stereo not drawn)	i	8%	i	1.9e-08	-2.3%
28	COCCN(C(=O)CCC(=O)Nc1cccnc1)C(C(=O)NC1CCCCC1)c1ccccc1 (stereo not drawn)	i	-2%	i	1e-09	-3.1%
29	COC(=O)c1ccc(NC(=O)C2CCCN2S(=O)(=O)c2ccc(F)cc2)cc1 (stereo not drawn)	i	2%	i	4.9e-09	0.8%
30	CCOc1ccc(OCC)c(NC(=O)CSCC(=O)O)c1	i	0%	i	6.2e-08	0.6%
31	CCCn1c(CNC(=O)c2cccs2)nc2ccccc21	.	4%	.	.	2.8%
32	O=C1c2ccccc2C(=O)N1c1ccc(S(=O)(=O)N2CCN(c3ccccc3)CC2)cc1	i	-9%	i	1e-09	0.2%
33	Cc1cccc2cc(COC(=O)c3cccnc3)c(=O)[nH]c12	i	0%	i	7.1e-09	0.2%
34	Cc1cccc2cc(C(c3nnnn3CC3CCCO3)N3CCCc4ccccc43)c(=O)[nH]c12 (stereo not drawn)	i	-1%	i	2.7e-09	3.5%
35	O=C(CN1C(=O)c2ccccc2C1=O)Nc1ccccc1F	.	?	.	.	-0.1%
36	CCC(=O)Nc1nonc1-c1nc2ccccc2n1N(C(=O)CC)C(=O)CC	i	6%[11.4 µM]	i	2.8e-09	0.7%
37	O=C(c1ccc(F)cc1)N1CCN(Cc2ccccc2Br)CC1	i	-8%	i	1e-09	0.9%
38	O=C(NCCN1CCCC1)C1(S(=O)(=O)c2ccc(Cl)cc2)CC1	i	4%	i	1e-09	2.4%
39	COC(=O)N1CCC[C@@]2(CCN(C(=O)NC(C)C)C2)C1	i	3%	i	1e-09	2.8%
40	COC(=O)c1ccc2c(c1)NC(=O)C(N1CCCC1)S2 (stereo not drawn)	i	2%	i	3.5e-08	1.6%
41	CCCCn1c(=O)[nH]c(=O)c2c1nc(COC(=O)c1c(C)noc1C)n2CCC	i	9%	i	3.4e-08	2.4%
42	COc1ccc(C(=O)COC(=O)CSCc2c(C)noc2C)cc1OC	i	4%	i	1.1e-08	0.2%
43	O=C(c1ccc(N2CCCC2=O)cc1)N1CCN(c2ccccc2)CC1	i	0%	i	1.8e-09	0.6%
44	C=CCN(CC=C)c1nc2ccccc2nc1C(C#N)C(=O)OC(C)C (stereo not drawn)	i	.	i	1e-09	.
45	Cc1cccc(OCc2n[nH]c(=S)o2)c1	i	?	i	5.5e-08	-0.1%
46	Fc1ccc(CSc2nnc(-c3cccs3)o2)cc1	i	?	i	6.9e-09	0.4%
47	COc1ccc(OC)c(CNC(=O)CCc2nc(-c3cccs3)no2)c1	.	19%	.	.	-0.7%
48	O=C(c1cccc(F)c1)N1CCC2(CCCN(c3cccc(-c4ccccc4)c3)C2)CC1	i	?	i	1e-09	4.3%
49	O=C(NCc1ccco1)c1cccc(S(=O)(=O)N2CCCCC2)c1	i	9%	i	1e-09	-0.7%
50	O=c1c2cc(Cl)ccc2[nH]c(=S)n1Cc1ccco1	i	-12%	i	1.7e-09	-1.5%
51	COc1ccc(NC(=O)N2CC3(CCN(S(C)(=O)=O)CC3)C2)cc1	i	0%	i	1.5e-08	-0.9%
52	CCOc1cc2[nH]c(=O)n(CCCCCC(=O)NCc3ccc4c(c3)OCO4)c(=O)c2cc1OCC	i	-3%	i	8.6e-09	0.5%
53	COCc1ccccc1Cn1cnc2c1c(=O)n(C)c(=O)n2C	i	-10%	i	2.9e-09	19%
54	CCc1ccc(NC(=O)Cn2c(=O)n(CCCC(=O)NCc3ccco3)c(=O)c3ccccc32)cc1	i	22%	i	1.7e-08	0.0%
55	CCOC(=O)c1ccc(NCC(O)COc2ccccc2)cc1 (stereo not drawn)	i	.	i	5.8e-08	.
56	COc1ccc(C2C(C(=O)c3ccco3)=C(O)C(=O)N2CCc2ccccc2)cc1OC (stereo not drawn)	i	-7%	i	4.2e-08	0.8%
57	CCOc1ccc(CSC(CC(=O)O)C(=O)O)cc1 (stereo not drawn)	i	.	i	8.3e-08	.
58	O=C(CSc1nnc(COc2ccccc2)o1)N1CCN(c2ccccc2)CC1	i	-1%	i	1e-09	-0.9%
59	OC(COc1ccc2ccccc2c1)CN1CCOCC1 (stereo not drawn)	i	11%	i	8e-09	0.1%
60	Cc1cc(C)nc(N2CCN(c3ncnc4c3cnn4Cc3ccc(Cl)cc3Cl)CC2)n1	i	5%	i	4.1e-09	3.7%
61	CCOc1ccc(/C(O)=C2\C(=O)C(=O)N(c3cc(C)on3)C2c2ccccc2OC)cc1 (stereo not drawn)	.	8%	.	.	-0.2%
62	CC(C)n1nnnc1C(c1ccc(F)cc1)N1CCN(C2CCCC2)CC1 (stereo not drawn)	i	?	i	1e-09	-0.5%
63	O=C(Nc1ccc2c(c1)OCO2)C1CCCCN1S(=O)(=O)c1ccc(F)cc1 (stereo not drawn)	i	13%	i	4.7e-08	-0.4%
64	Cc1cc(C)nc(N(C#N)CC(=O)c2ccccc2)n1	i	19%	i	2.4e-09	-0.4%

# Next part
no.	SMILES	Resorufin autofl	TSHR ag	A488 fluor	A647 fluor	AID923
65	Cc1cc(C)nc(SCc2nnc(SCC(=O)Nc3ncc(C)s3)n2Cc2ccco2)n1	i	10%	i	7.9e-09	0.3%
66	Cc1occc1-c1nnc(SCCCC(=O)c2ccc(F)cc2)n1C	i	?	i	2.5e-08	1.8%
67	COc1ccc(C(=O)OC(C)CN2CCOCC2)cc1OC (stereo not drawn)	i	5%	i	1e-09	0.8%
68	COC(=O)c1nn(-c2ccc(-c3ccccc3)cc2)cc1O	.	-7%	.	.	-0.7%
69	Cc1ccc(C)c(N(CC(=O)NC2CCCC2)C(=O)CCCC(=O)Nc2ccccn2)c1	i	?	i	2.7e-09	-0.3%
70	CC(=O)c1ccccn1	.	5%	.	.	-0.7%
71	CC(C)c1ccccc1NC(=O)CCCC(=O)O	.	-2%[11.4 µM]	.	.	-1.6%
72	CCOC(=O)C(CC)Sc1nc(-c2ccc(OC)cc2)nc2c1c(=O)n(C)c(=O)n2C (stereo not drawn)	i	?	i	1e-09	0.5%
73	COc1ccc(-n2nc(C(=O)N3CCN(Cc4ccc5c(c4)OCO5)CC3)c3ccccc3c2=O)cc1	i	1%[11.4 µM]	i	1.6e-09	-0.6%
74	O=C(c1cc(C(F)(F)F)cc(C(F)(F)F)c1)N1CCC[C@@]2(CCN(c3ncccn3)C2)C1	i	2%	i	1e-09	1.5%
75	CCOc1ccc2[nH]c(=O)c(CN(Cc3ccco3)C(CC)c3nnnn3Cc3ccccc3)cc2c1 (stereo not drawn)	i	.	i	1.2e-08	8.3%
76	CCC(=O)N(Cc1ccc(S(N)(=O)=O)cc1)C1CC(=O)N(c2ccc(OC)cc2)C1=O (stereo not drawn)	i	10%	i	1e-09	-2.0%
77	O=C(Nc1ccccc1N1CCN(C(=O)c2ccc(Cl)cc2)CC1)c1cc2ccccc2o1	i	?	i	1e-09	0.7%
78	Cc1cccc(-c2nsc(SCC(=O)NCc3ccco3)n2)c1	i	26%	i	1.5e-08	0.9%
79	Cc1nn(Cc2ccccc2)c(N)c1-c1ccccc1	.	2%	.	.	0.3%
80	COc1ccc(CSc2nnc(N)s2)cc1F	i	2%	i	1.1e-08	1.7%
81	Cc1occc1-c1nnc(SCC(=O)Nc2ccc(F)cc2)n1Cc1ccccc1	i	?	i	1e-09	-1.2%
82	Cn1nnc(NC(=O)C(c2ccccc2)c2ccccc2)n1	i	-1%	i	1.3e-08	-1.2%
